Compound activity: PubChem, Broad Institute
Ran importin: inhibitors of Ran–importin-beta complex formation, primary screen, biochemical, CFP-Ran/YFP-importin-beta FRET, RCC1, cell-free (AID 434961); CFP-Ran/YFP-importin-beta FRET, cell-free; stronger effect = higher value; 7,700 tested, 0.2% active; inhibition, %;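 active = more than half of the replicate wells above 15% inhibition; inconclusive = exactly half above it; inactive = fewer than half above it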;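 also: 0% = DMSO wells and 100% inhibition = RanGDP control wells on each plate; stock of unstated strength diluted about 400-fold; mean of two wells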
The depositor's hits bear a star; u = inconclusive. Not all compounds are listed. The share of hits here may be higher or lower than overall.

SMILES	Ran importin
C[C@@H]1CN([C@H](C)CO)C(=O)Cc2cc(NC(=O)Nc3ccccc3)ccc2O[C@H]1CN(C)Cc1ccncc1	0.8
Cc1noc(C)c1NC(=O)Nc1cccc2c1O[C@H](CN(C)S(=O)(=O)c1cn(C)cn1)[C@H](C)CN([C@@H](C)CO)C2=O	0.5
C[C@@H]1CN([C@@H](C)CO)C(=O)c2cc(NS(=O)(=O)c3ccccc3)ccc2O[C@H]1CN(C)C(=O)Nc1cccc2ccccc12	5.1
C[C@@H]1CCCCO[C@H](CN(C)S(=O)(=O)c2ccccc2)[C@H](C)CN([C@@H](C)CO)C(=O)c2cc(N(C)C)ccc2O1	6.4
C[C@H](CO)N1C[C@H](C)[C@H](CN(C)C)Oc2ccc(NC(=O)c3ccncc3)cc2C1=O	0.2
CNC[C@H]1Oc2ccc(NC(=O)Nc3ccc4c(c3)OCO4)cc2CC(=O)N([C@H](C)CO)C[C@H]1C	-4.3
COc1ccccc1NC(=O)N(C)C[C@@H]1OCc2cn(nn2)CCCC(=O)N([C@@H](C)CO)C[C@H]1C	-0.7
CC(C)NC(=O)Nc1ccc2c(c1)C(=O)N([C@H](C)CO)C[C@H](C)[C@H](CN(C)C(=O)C1CCCCC1)OCCCC[C@H](C)O2	-1.0
C[C@@H]1CN([C@@H](C)CO)C(=O)CCCn2cc(nn2)CO[C@@H]1CN(C)Cc1ccc2c(c1)OCO2	-9.8
C[C@@H]1CN([C@H](C)CO)C(=O)c2cc(NC(=O)CCCN(C)C)ccc2O[C@H]1CN(C)C(=O)Nc1cccc2ccccc12	0.4
CNC[C@H]1OCCCC[C@@H](C)Oc2ccc(NC(=O)C3CCCCC3)cc2C(=O)N([C@@H](C)CO)C[C@H]1C	-5.8
CC(C)NC(=O)Nc1ccc2c(c1)C(=O)N([C@@H](C)CO)C[C@H](C)[C@H](CN(C)S(=O)(=O)c1ccc(F)cc1)OCCCC[C@@H](C)O2	2.9

The final 5 records of the section above open the next one.
SMILES	Ran importin
CC(C)NC(=O)Nc1ccc2c(c1)C(=O)N([C@H](C)CO)C[C@H](C)[C@H](CN(C)C(=O)C1CCCCC1)OCCCC[C@H](C)O2	-1.0
C[C@@H]1CN([C@@H](C)CO)C(=O)CCCn2cc(nn2)CO[C@@H]1CN(C)Cc1ccc2c(c1)OCO2	-9.8
C[C@@H]1CN([C@H](C)CO)C(=O)c2cc(NC(=O)CCCN(C)C)ccc2O[C@H]1CN(C)C(=O)Nc1cccc2ccccc12	0.4
CNC[C@H]1OCCCC[C@@H](C)Oc2ccc(NC(=O)C3CCCCC3)cc2C(=O)N([C@@H](C)CO)C[C@H]1C	-5.8
CC(C)NC(=O)Nc1ccc2c(c1)C(=O)N([C@@H](C)CO)C[C@H](C)[C@H](CN(C)S(=O)(=O)c1ccc(F)cc1)OCCCC[C@@H](C)O2	2.9
CC(C)NC(=O)N(C)C[C@@H]1OCCCC[C@H](C)Oc2ccc(N(C)C)cc2C(=O)N([C@H](C)CO)C[C@H]1C	-0.5
CC(C)NC(=O)Nc1ccc2c(c1)C(=O)N([C@H](C)CO)C[C@@H](C)[C@H](CN(C)Cc1ccc(C(=O)O)cc1)OCCCC[C@@H](C)O2	u
CC(C)NC(=O)N(C)C[C@@H]1OCCCC[C@H](C)Oc2ccc(NC(=O)Nc3ccccc3)cc2C(=O)N([C@@H](C)CO)C[C@H]1C	-1.0
C[C@@H]1CN([C@@H](C)CO)C(=O)c2cccc(NS(C)(=O)=O)c2O[C@H]1CN(C)S(=O)(=O)c1ccc(Cl)cc1	0.8
C[C@H]1CCCCO[C@H](CN(C)C(=O)Nc2ccc(F)cc2)[C@@H](C)CN([C@@H](C)CO)C(=O)c2cc(NS(=O)(=O)c3ccccc3)ccc2O1	-3.5
C[C@@H]1CN([C@@H](C)CO)C(=O)c2cc(NS(C)(=O)=O)ccc2O[C@@H](C)CCCCO[C@@H]1CN(C)C	-4.0
C[C@H]1CN([C@@H](C)CO)C(=O)c2cc(NC(=O)CCCN(C)C)ccc2O[C@H]1CN(C)C(=O)Nc1cccc2ccccc12	-5.8
Cc1noc(C)c1S(=O)(=O)Nc1ccc2c(c1)CC(=O)N([C@@H](C)CO)C[C@H](C)[C@@H](CN(C)C(=O)Nc1ccccc1)O2	-2.7
C[C@H](CO)N1C[C@H](C)[C@H](CN(C)C(=O)Nc2ccc(F)cc2)Oc2ccc(NS(=O)(=O)c3cccs3)cc2C1=O	-0.3
C[C@H](CO)N1C[C@H](C)[C@@H](CN(C)C(=O)CCC(F)(F)F)OCCCC[C@H](C)Oc2ccc(N(C)C)cc2C1=O	-1.4
C[C@@H]1CCCCO[C@H](CN(C)C(=O)C2CCCCC2)[C@H](C)CN([C@@H](C)CO)C(=O)c2cc(NS(=O)(=O)c3cccs3)ccc2O1	-2.7
C[C@H]1CN([C@@H](C)CO)C(=O)c2cc(NC(=O)Nc3cccc4ccccc34)ccc2O[C@@H]1CN(C)C(=O)Nc1ccc2c(c1)OCO2	4.0
CC(C)NC(=O)Nc1cccc2c1O[C@H](CN(C)Cc1ccc(Oc3ccccc3)cc1)[C@H](C)CN([C@H](C)CO)C2=O	0.7
COc1ccc(CN(C)C[C@H]2Oc3c(NC(=O)Nc4ccc(OC)cc4)cccc3C(=O)N([C@@H](C)CO)C[C@@H]2C)cc1	1.8
Cc1noc(C)c1NC(=O)Nc1cccc2c1O[C@@H](CN(C)S(=O)(=O)c1ccc(Cl)cc1)[C@H](C)CN([C@H](C)CO)C2=O	0.7
COc1ccc(S(=O)(=O)Nc2cccc3c2O[C@@H](CN(C)Cc2ccc(C(F)(F)F)cc2)[C@H](C)CN([C@H](C)CO)C3=O)cc1	-5.1
C[C@@H]1CCCCO[C@H](CN(C)C)[C@@H](C)CN([C@H](C)CO)C(=O)c2cc(NC(=O)Nc3ccc4c(c3)OCO4)ccc2O1	-4.5
C[C@@H]1CN([C@@H](C)CO)C(=O)Cc2cc(NC(=O)CCN3CCOCC3)ccc2O[C@H]1CN(C)Cc1ccncc1	2.8
C[C@@H]1CN([C@H](C)CO)C(=O)c2cc(NC(=O)Nc3ccccc3)ccc2O[C@@H](C)CCCCO[C@H]1CN(C)S(=O)(=O)c1ccc(F)cc1	4.2
CNC[C@H]1Oc2c(NS(=O)(=O)c3ccc(OC)cc3)cccc2C(=O)N([C@@H](C)CO)C[C@H]1C	7.5
C[C@@H]1CCCCO[C@@H](CN(C)C(=O)C2CCCCC2)[C@@H](C)CN([C@H](C)CO)C(=O)c2cc(NC(=O)Nc3ccccc3)ccc2O1	3.9
COc1ccc(CN(C)C[C@H]2Oc3ccc(NS(=O)(=O)c4ccc(OC)cc4)cc3C(=O)N([C@H](C)CO)C[C@H]2C)cc1	-3.2
C[C@@H]1CN([C@H](C)CO)C(=O)c2cccc(NC(=O)NC3CCCCC3)c2O[C@H]1CN(C)S(=O)(=O)c1ccc(Cl)cc1	-1.7
Cc1noc(C)c1NC(=O)Nc1ccc2c(c1)C(=O)N([C@H](C)CO)C[C@H](C)[C@@H](CN(C)C(=O)Nc1c(C)noc1C)OCCCC[C@H](C)O2	u
CNC[C@H]1Oc2ccc(NC(=O)NC(C)C)cc2CC(=O)N([C@H](C)CO)C[C@H]1C	-4.1
C[C@@H]1CCCCO[C@H](CN(C)S(=O)(=O)c2ccccc2)[C@@H](C)CN([C@H](C)CO)C(=O)c2cc(N(C)C)ccc2O1	-0.3
COc1ccc(S(=O)(=O)N(C)C[C@@H]2Oc3c(NC(=O)Nc4cccc5ccccc45)cccc3C(=O)N([C@@H](C)CO)C[C@H]2C)cc1	0.1
C[C@@H]1CCCCO[C@@H](CN(C)C)[C@@H](C)CN([C@H](C)CO)C(=O)c2cc(NC(=O)CCC(F)(F)F)ccc2O1	-5.5
C[C@H]1CN([C@@H](C)CO)C(=O)CCCn2cc(nn2)CO[C@H]1CN(C)C(=O)CCC(F)(F)F	3.1
C[C@H](CO)N1C[C@H](C)[C@@H](CN(C)C(=O)Nc2ccc(F)cc2)Oc2c(NC(=O)NC3CCCCC3)cccc2C1=O	6.2
Cc1noc(C)c1NC(=O)Nc1ccc2c(c1)C(=O)N([C@H](C)CO)C[C@@H](C)[C@H](CN(C)C(=O)Nc1c(C)noc1C)O2	-3.5
COc1ccc(CN(C)C[C@@H]2Oc3ccc(NC(=O)Nc4ccc(OC)cc4)cc3C(=O)N([C@@H](C)CO)C[C@@H]2C)cc1	1.0
C[C@H]1CN([C@@H](C)CO)C(=O)Cc2cc(NC(=O)Cc3ccccc3)ccc2O[C@H]1CN(C)Cc1ccc(C(F)(F)F)cc1	-5.8
COc1ccc(NC(=O)N(C)C[C@@H]2Oc3c(NS(=O)(=O)c4cccs4)cccc3C(=O)N([C@@H](C)CO)C[C@@H]2C)cc1	1.9
COc1ccc(S(=O)(=O)N(C)C[C@@H]2Oc3ccc(NC(=O)Nc4ccc(C(F)(F)F)cc4)cc3C(=O)N([C@H](C)CO)C[C@H]2C)cc1	0.1
COc1ccc(S(=O)(=O)Nc2ccc3c(c2)CC(=O)N([C@H](C)CO)C[C@H](C)[C@H](CN(C)C)O3)cc1	1.7
COc1ccc(CN(C)C[C@H]2Oc3c(NS(=O)(=O)c4ccc(OC)cc4)cccc3C(=O)N([C@H](C)CO)C[C@@H]2C)cc1	-0.4
C[C@@H]1CN([C@@H](C)CO)C(=O)c2cc(N(C)C)ccc2O[C@@H]1CN(C)C(=O)NC1CCCCC1	-1.5
CNC[C@H]1OCCCC[C@H](C)Oc2ccc(NS(=O)(=O)c3cccs3)cc2C(=O)N([C@@H](C)CO)C[C@@H]1C	1.3
C[C@@H]1CCCCO[C@H](CN(C)C(=O)CCCN(C)C)[C@H](C)CN([C@@H](C)CO)C(=O)c2cc(NS(=O)(=O)c3cccs3)ccc2O1	-3.8
C[C@@H]1CN([C@H](C)CO)C(=O)c2cccc(NC(=O)C3CCOCC3)c2O[C@@H]1CN(C)C(=O)Nc1ccc(F)cc1	4.0
Cc1noc(C)c1S(=O)(=O)N(C)C[C@H]1Oc2ccc(NC(=O)Nc3ccc(F)cc3)cc2CC(=O)N([C@@H](C)CO)C[C@H]1C	-1.0
C[C@H]1CN([C@@H](C)CO)C(=O)c2cccc(NC(=O)C3CCOCC3)c2O[C@@H]1CN(C)Cc1ccc(Cl)c(Cl)c1	6.8
C[C@@H]1CN([C@H](C)CO)C(=O)c2cccc(NS(=O)(=O)c3ccc(Cl)cc3)c2O[C@@H]1CN(C)Cc1ccc(C(=O)O)cc1	1.3
Cc1noc(C)c1S(=O)(=O)N(C)C[C@@H]1OCCCC[C@@H](C)Oc2ccc(NC(=O)NC(C)C)cc2C(=O)N([C@@H](C)CO)C[C@H]1C	-3.6
C[C@@H]1CN([C@H](C)CO)C(=O)c2cccc(NS(=O)(=O)c3ccc(Cl)cc3)c2O[C@@H]1CN(C)C(=O)Nc1ccc(C(F)(F)F)cc1	-0.6
C[C@@H]1CCCCO[C@@H](CN(C)C)[C@H](C)CN([C@H](C)CO)C(=O)c2cc(NC(=O)Nc3cccc4ccccc34)ccc2O1	1.1
C[C@@H]1CN([C@@H](C)CO)C(=O)c2cc(NS(C)(=O)=O)ccc2O[C@@H](C)CCCCO[C@@H]1CN(C)C(=O)CCCN(C)C	1.7

No new results follow: an excerpt of the list.
SMILES	Ran importin
C[C@@H]1CN([C@H](C)CO)C(=O)c2cccc(NC(=O)C3CCOCC3)c2O[C@@H]1CN(C)C(=O)Nc1ccc(F)cc1	4.0
Cc1noc(C)c1S(=O)(=O)N(C)C[C@H]1Oc2ccc(NC(=O)Nc3ccc(F)cc3)cc2CC(=O)N([C@@H](C)CO)C[C@H]1C	-1.0
C[C@H]1CN([C@@H](C)CO)C(=O)c2cccc(NC(=O)C3CCOCC3)c2O[C@@H]1CN(C)Cc1ccc(Cl)c(Cl)c1	6.8
C[C@@H]1CN([C@H](C)CO)C(=O)c2cccc(NS(=O)(=O)c3ccc(Cl)cc3)c2O[C@@H]1CN(C)Cc1ccc(C(=O)O)cc1	1.3

Following part
SMILES	Ran importin
C[C@@H]1CN([C@@H](C)CO)C(=O)Cc2cc(NC(=O)Cc3cn(C)c4ccccc34)ccc2O[C@@H]1CN(C)Cc1ccncc1	-0.1
C[C@H](CO)N1C[C@H](C)[C@H](CN(C)C(=O)NC2CCCC2)Oc2ncc(-c3cc4ccccc4o3)cc2C1=O	-0.1
CC(C)NC(=O)Nc1ccc2c(c1)C(=O)N([C@H](C)CO)C[C@H](C)[C@H](CN(C)Cc1ccc(C(=O)O)cc1)OCCCC[C@@H](C)O2	-1.0
C[C@@H]1CN([C@@H](C)CO)C(=O)c2cc(NS(=O)(=O)c3cn(C)cn3)ccc2O[C@@H]1CN(C)C(=O)Nc1ccc(F)cc1	-4.9
C[C@H](CO)N1C[C@H](C)[C@@H](CN(C)Cc2ccc(C(=O)O)cc2)Oc2c(NS(=O)(=O)c3ccc(Cl)cc3)cccc2C1=O	-2.3
CNC[C@H]1Oc2c(cccc2N(C)C)C(=O)N([C@H](C)CO)C[C@@H]1C	0.3
CNC[C@@H]1Oc2ccc(NC(=O)Nc3ccc4c(c3)OCO4)cc2CC(=O)N([C@H](C)CO)C[C@@H]1C	1.8
C[C@H]1CN([C@@H](C)CO)C(=O)c2cccc(NC(=O)c3ccncc3)c2O[C@H]1CN(C)S(=O)(=O)c1ccc(F)cc1	-2.4
Cc1noc(C)c1S(=O)(=O)Nc1ccc2c(c1)C(=O)N([C@H](C)CO)C[C@@H](C)[C@H](CN(C)C(=O)Nc1ccccc1)OCCCC[C@@H](C)O2	6.8
C[C@@H]1CCCCO[C@H](CN(C)S(=O)(=O)c2ccc(F)cc2)[C@@H](C)CN([C@H](C)CO)C(=O)c2cc(NC(=O)Nc3ccccc3)ccc2O1	2.2
C[C@@H]1CCCCO[C@H](CN(C)C(=O)C2CCCCC2)[C@@H](C)CN([C@@H](C)CO)C(=O)c2cc(N(C)C)ccc2O1	-0.5
CNC[C@@H]1OCCCC[C@@H](C)Oc2ccc(NS(=O)(=O)c3ccccc3)cc2C(=O)N([C@@H](C)CO)C[C@@H]1C	3.5
C[C@H](CO)N1C[C@H](C)[C@H](CN(C)S(=O)(=O)c2cccs2)OCCCC[C@H](C)Oc2ccc(NS(C)(=O)=O)cc2C1=O	-1.9
